Menin-MLL FL inh – menin-MLL binding inhibition, fluorescein peptide. 290,000 tested, under 10 active. FP activity change, % at 61.4 µM. Fluorescence polarization, fluorescein-MLL peptide displacement from menin; inconclusive = falling polarisation curve, or a change in total fluorescence; inactive = total fluorescence flat and polarisation flat or rising; no compound was filed as active; the % refers to the polarisation; negative = inhibition;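 also: % of control where 0% means no effect; inhibitors lower the polarisation; unlabelled MLL peptide was the positive control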
TRPML1 agonist – activates the human TRPML1 channel; 410,000 tested, 0.12% active; AID 624414; activation, % (test concentration not listed); TRPML1-expressing cells, Ca2+ dye fluorescence, FDSS; host cell line not named in the record; reference of the full effect not given here; in the data active = activation above about 50%; inconclusive = about 30% to 50%; inactive = below about 30%; also: 0% is about no effect; the text of the record puts the active cut at 80%
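Tet-induced TRPML1-DL cells, 1,500 per well, cultured overnight, were loaded with a no-wash Ca2+ dye for 45–90 min. Calcium fluorescence was recorded on the FDSS for 110 s after compound addition, before the EC80 agonist (4 uM 54-4) was added.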
Sfp inh – blocks B. subtilis Sfp PPTase activity; Q9F4F7; Biochemical Sfp PPTase activity, qHTS; Potency, µM, for the others: max response, negative = inhibition, actives largely listed as inhibitors; 310,000 tested, 3.5% active; active = well fitted inhibition curve with a large enough effect; inconclusive = small, poorly fitted or top-dose-only effect, or another doubt; inactive = no such curve, though single readings can be large or run the other way;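 also: the enzyme is Sfp with the accession as filed and its product quenches rhodamine fluorescence; potency is read from the fitted curve at half-maximal effect; 0% = enzyme reaction without inhibitor and -100% = no enzyme wells; top concentration of the series not given in the record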
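Sfp 15 nM + cpd, 15 min RT; start w/ rhodamine-CoA 5 uM, BHQ-2-YbbR 12.5 uM (final); 50 mM Hepes pH 7.6, 10 mM MgCl2, 0.01% NP-40, 0.01% BSA; read 525/598 nm at 0 and 30 min.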
PINK1 expr mod – modulators of PINK1 expression. Potency, µM (series often up to 76.6 µM), for the others: top-dose activation (PINK1 increase), most hits filed as activators. 410,000 tested, 0.2% active. PINK1 immunofluorescence, high-content cytometry, 24 h; active = well fitted activation curve with a large enough effect; inconclusive = small, poorly fitted or top-dose-only effect; inactive = flat fitted curve, though single readings scatter; cell line not stated here;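 also: potency is read from the fitted curve at half-maximal effect; % of control where 0% means no effect; nearly all actives have a fitted effect of over 65% in size; a mitochondrial uncoupler was the plate control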
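Stable cell line, 250 cells/well, 12 h attachment; compounds pinned at 5 concentrations, 24 h; CCCP control. Fixed with nuclear dye, primary antibodies 12 h at 10 degrees C, secondary plus cell stain; laser-scanning cytometer read.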
TRPML1 blocker – human mucolipin-1 channel inhibition | Q9GZU1 | TRPML1-inducible cells, Ca2+ dye fluorescence, FDSS; hits give low values; inhibition of EC80 agonist-evoked calcium signal | activity change, negative = inhibition, % (no concentration beside the values) | 390,000 tested, 0.02% active | AID 624415; in the data active means activity change below about -50%; inconclusive means about -30% to -50%; inactive means above about -30%;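 also: stimulus is agonist 54-4 at its EC80 concentration; % is scaled to controls: 0 for no effect and ±100 for the full control effect; compound concentration not given in the record; the text of the record puts the active cut at -80%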
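Tet-induced TRPML1-DL cells loaded with Ca8 no-wash calcium dye were read kinetically on FDSS. Compound addition was followed by EC80 agonist 54-4 (4 uM final); inhibition was read over 110 s.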
ClpP mod – qHTS Assay for Activators of ClpP; ATP-dependent Clp protease proteolytic subunit (Bacillus subtilis (strain 168)), P80244; purified B. subtilis ClpP, FRET peptide cleavage, 20 min; Potency, µM (top dose mostly 57.5 µM), without a hit: at the highest dose activity change, negative = active; 340,000 tested, 1.9% active; AID 651965, 2013; active = well fitted falling curve with a large enough effect; inconclusive = small, poorly fitted or top-dose-only effect; inactive = no such curve, though single readings can be large or run the other way; also: potency is read from the fitted curve at half-maximal effect; the source files actives as falling curves though it sought activators and does not explain the sign; nearly all actives have a fitted effect of over 65% in size; many hits overshoot -100%
Target sequence (P80244 whole entry, looked up): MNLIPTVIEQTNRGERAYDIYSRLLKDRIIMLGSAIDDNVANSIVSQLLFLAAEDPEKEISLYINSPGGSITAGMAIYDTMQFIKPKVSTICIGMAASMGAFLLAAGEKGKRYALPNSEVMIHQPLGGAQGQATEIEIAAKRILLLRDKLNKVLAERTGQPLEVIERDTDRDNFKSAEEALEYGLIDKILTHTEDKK
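FRET quenching reversal measured ClpP activation: 10 microg/mL B. subtilis ClpP at pH 8 with the FRET-FV decapeptide, read at 430 nm after 320 nm excitation. The 20-min minus 0-min signal was scaled between DMSO/no-enzyme wells and ADEP (5.8 microM final).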
TRPV1 potentiator – human TRPV1 potentiation | TRPV1-expressing cells, Fluo-8 calcium influx, capsaicin EC20 potentiation; host cell line not named in the record; control for the full effect not named in the record | potentiation, % at 8.33 µM | 320,000 tested, 0.02% active | AID 540277; active means potentiation above 80%; inconclusive means 30% to 80%; inactive means below 30%; also: 0% is about no effect
Target sequence (Q8NER1 whole entry, looked up): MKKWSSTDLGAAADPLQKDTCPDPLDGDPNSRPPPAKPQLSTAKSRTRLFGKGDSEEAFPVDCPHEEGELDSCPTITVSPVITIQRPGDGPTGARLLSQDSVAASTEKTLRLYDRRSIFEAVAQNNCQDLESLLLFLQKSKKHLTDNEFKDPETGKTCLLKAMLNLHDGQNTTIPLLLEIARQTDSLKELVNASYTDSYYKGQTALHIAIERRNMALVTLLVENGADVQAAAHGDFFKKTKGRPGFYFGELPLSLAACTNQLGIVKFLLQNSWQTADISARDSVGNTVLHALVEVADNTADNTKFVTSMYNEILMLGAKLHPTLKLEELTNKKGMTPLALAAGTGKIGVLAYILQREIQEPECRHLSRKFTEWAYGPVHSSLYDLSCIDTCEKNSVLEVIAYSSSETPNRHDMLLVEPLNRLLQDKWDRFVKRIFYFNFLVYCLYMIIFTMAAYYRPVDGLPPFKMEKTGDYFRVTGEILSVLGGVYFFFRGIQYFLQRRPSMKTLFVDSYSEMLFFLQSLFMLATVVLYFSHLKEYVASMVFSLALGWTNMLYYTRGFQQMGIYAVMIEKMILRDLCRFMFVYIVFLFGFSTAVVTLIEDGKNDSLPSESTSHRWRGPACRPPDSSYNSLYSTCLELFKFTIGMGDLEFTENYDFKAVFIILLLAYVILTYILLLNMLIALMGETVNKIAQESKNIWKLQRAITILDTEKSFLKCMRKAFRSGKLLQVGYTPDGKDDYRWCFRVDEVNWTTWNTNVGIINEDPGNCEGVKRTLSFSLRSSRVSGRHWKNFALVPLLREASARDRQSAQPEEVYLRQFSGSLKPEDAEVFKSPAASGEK
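TRPV1-expressing cells were cultured overnight at 35.5C and loaded with Fluo-8 calcium dye for 40 to 90 min at room temperature. After a 10 s baseline, compound was added and calcium influx was read kinetically for 3 min (ex 480/em 520 nm).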
* marks the source's active call; other numbers are inactive results; ? = inconclusive; / = not tested or not shown; [ ] = another dose, or the depositor's remark.

SMILES	Menin-MLL FL inh	TRPML1 agonist	Sfp inh	PINK1 expr mod	TRPML1 blocker	ClpP mod	TRPV1 potentiator
CC1CCCN(S(=O)(=O)c2ccc(CN3C(=O)c4cccnc4C3=O)cc2)C1 (configuration not stated)	2.0	-0.7	2%	0.1%	30	-3.1%	1
O=c1c2ccccc2nnn1CCO	-0.5	0.5	12%	0.5%	40	1.7%	-9
CCOc1ccc(NC(=O)c2cc3c(C)nc4ccccc4c3o2)cc1	3.3	0.5	6%	13%	-6	-13%	11
Cn1c(SCC(=O)Nc2nccs2)nnc1C1CC1	-1.6	1.1	-7%	-0.2%	15	0.3%	3
COc1ccccc1NC(=S)Nc1ccc2cn[nH]c2c1	0.3	-0.1	-20%	0.5%	-15	/	0
COc1cc(/C=c2\s/c(=C(/C#N)C(=O)N3CCCC3)n(-c3ccccc3)c2=O)ccc1O	?	?	-9%	14%	-15	0.9%	-11
O=C1NC(c2ccccc2OC(F)F)Oc2ccccc21 (configuration not stated)	26	-0.2	7%	6.4%	-13	/	7
CC(C)NC(=O)c1ccc(CNC(=O)OCC(F)(F)F)cc1	0.0	-0.4	8%	2.3%	4	-1.8%	-2
CC1CCN(Cc2c(C(=O)N3CCc4ccccc4C3)nc3ccc(Cl)cn23)CC1	/	1.2	4%	0.2%	24	-7.3%	-16
Cc1ccc(NC(=O)CSc2nncn3c2cc2sccc23)cc1F	/	0.5	/	-1.1%	15	-15%	/
O=C(CCNC(=O)c1ccc(Cl)cc1)Nc1ccccc1N1CCCC1	/	-0.6	/	-1.1%	-2	-5.9%	-6
COc1ccc(OCC(=O)N2CCN(C(=O)COc3ccccc3)CC2)cc1	-0.5	-0.3	15%	2.0%	-5	0.6%	0
COc1ccc(S(=O)(=O)Nc2cccc(-c3ccc(N4CCCCC4)nn3)c2)cc1F	/	2.9	/	0.8%	-10	-1.4%	/
O=C(N=C1SC2CS(=O)(=O)CC2N1c1ccc(OC(F)(F)F)cc1)C1CC1 (configuration not stated)	/	-0.2	4%	0.1%	-6	-0.7%	-11
Cc1cccc(C2Nc3ccccc3C(=O)N2CCc2ccccc2)n1 (configuration not stated)	0.3	-0.4	4%	0.6%[38.3 µM]	6	18µM*	-36
CC(=O)NCCn1c(SCC(=O)NCc2ccco2)nc2ccccc2c1=O	-2.3	0.0	11%	0.5%[38.3 µM]	-11	-1.0%	/
Cc1ccc([C@@H]2CC=C(C(=O)O)[C@H](c3ccc(C(C)(C)C)cc3)N2S(=O)(=O)c2ccc(C)cc2)cc1	/	1.1	/	2.6%	-10	2.3%	/
CCOc1ccc(N/C=C/C(=O)c2ccc3ccccc3c2)c([N+](=O)[O-])c1	0.7	2.3	20%	4.3%[38.3 µM]	19	-1.6%	-3
O=c1nc2scc(-c3ccccc3)n2c2ccccc12	1.9	0.0	6%	12%[38.3 µM]	14	-8.1%	5
COc1cccc(CN(C)CC(=O)NC(=O)NCc2ccco2)c1	3.8	-0.3	5%	0.5%	-18	-3.4%	-8
O=[N+]([O-])c1cccc(Oc2ncccc2[N+](=O)[O-])c1	/	-0.7	/	0.3%	0	-0.2%	/
CC1CCCC(C)N1C(=O)CSc1nnc(-c2c[nH]c3ccccc23)o1 (configuration not stated)	-1.1	1.0	3%	0.6%[38.3 µM]	4	-1.3%	-2
Cc1ccc(-c2cc(C(F)(F)F)n3ncc(C(=O)N4CCCCC4c4cccnc4)c3n2)cc1 (configuration not stated)	-0.9	-0.1	-7%	8.6%	22	-18%	-31
COC(=O)c1c(NC(=O)CN2C(=O)NC3(CCC(C(C)(C)C)CC3)C2=O)sc2c1CCCCC2 (configuration not stated)	2.0	0.7	0%	1.6%	-8	/	-3
COc1ccc(N2CCN(CC(O)COc3cc(C)cc(C)c3)CC2)cc1 (configuration not stated)	-3.4	0.6	1%	2.5%	5	-4.4%	-15
COc1ccc(OCC(=O)Nc2ccc(-c3nc4cc(C)cc(C)c4o3)cc2)cc1	/	-0.5	/	2.0%	-23	?	/
CC1CCCCN1C(=O)c1cccc(NC2=C(Cl)C(=O)N(Cc3ccccc3)C2=O)c1 (configuration not stated)	/	1.4	/	-1.8%	8	0.2%	-8
CC(=O)c1ccc(NC(=O)C(C)Sc2nnc(-c3ccncc3)n2C2CC2)cc1 (configuration not stated)	/	0.6	/	0.4%	-14	-2.8%	/
CSCC(=O)NS(=O)(=O)c1ccc(C)cc1	-1.2	0.1	-24%	0.3%	-3	-0.8%	-2
COc1ccc(NC(=O)C2Cc3c(-c4ccccc4Oc4ccccc4)ccnc3O2)cn1 (configuration not stated)	/	-0.5	/	7.4%	/	-4.8%	/
COc1ccc(NC(=O)C(NC(=O)/C=C\c2ccc3c(c2)OCO3)c2ccc(OC)cc2)cc1 (configuration not stated)	/	-0.4	/	2.0%	0	3.4%	/
Cc1ccnc2nc(C(=O)OCC(=O)c3c[nH]c4ccccc34)nn12	5.8	0.8	0%	-0.4%	34	/	16
CCOc1cc(C=C2C(=O)c3ccccc3C2=O)ccc1OCC(=O)Nc1ccc(C)cc1	-4.4	-1.6	-5%	2.5%	-13	-2.7%	26
COc1ncc2nc(-c3ccccc3)c(=O)n(CCc3ccccc3)c2n1	3.6	/	-5%	0.5%	/	/	/
O=c1c2sc3ccccc3c2n(Cc2cccc(C(F)(F)F)c2)c(=O)n1Cc1ccccc1	/	0.0	/	1.4%	3	?	/
COc1ccc(-c2noc(COc3ccc(Cl)c(C)c3)n2)cc1	-1.0	2.2	30%[activator]	7.0%	35	-0.7%	5

3 structures already listed, arranged by length of the SMILES, falling:
SMILES	Menin-MLL FL inh	TRPML1 agonist	Sfp inh	PINK1 expr mod	TRPML1 blocker	ClpP mod	TRPV1 potentiator
COc1ccc(OCC(=O)Nc2ccc(-c3nc4cc(C)cc(C)c4o3)cc2)cc1	/	-0.5	/	2.0%	-23	?	/
COc1ncc2nc(-c3ccccc3)c(=O)n(CCc3ccccc3)c2n1	3.6	/	-5%	0.5%	/	/	/
CSCC(=O)NS(=O)(=O)c1ccc(C)cc1	-1.2	0.1	-24%	0.3%	-3	-0.8%	-2

(listing goes on)
SMILES	Menin-MLL FL inh	TRPML1 agonist	Sfp inh	PINK1 expr mod	TRPML1 blocker	ClpP mod	TRPV1 potentiator
O=C(CSCc1ccc(Cl)cc1)Nc1cc([N+](=O)[O-])ccc1O	1.3	3.2	-7%	14µM*	-7	/	5
CCCCN1C(=O)C(O)=C(C(C)=O)C1c1ccccc1 (configuration not stated)	1.8	-0.7	6%	2.4%	-25	-7.5%	4
CN1C(=O)CSc2ccc(NC(=O)N3CCOCC3)cc21	0.4	0.6	8%	3.3%[38.3 µM]	-3	-0.3%	29
O=C(NCCCn1ccnc1)c1ccc(F)cc1	0.8	0.1	25%	3.7%	-11	0.4%	-9
O=C1C(Cl)=C(N2CCCCC2)C(=O)C(Cl)=C1c1cnc(N2CCCCC2)s1	-0.9	0.1	18µM*	0.6%	4	0.6%	3
Cc1ccc2nc(SC(C(=O)c3ccccc3)c3ccccc3)nc(C)c2c1 (configuration not stated)	11	0.1	0%	8.2%	16	?	22
COc1ccc(Cn2c(-c3ccc(OC)cc3)nc3c(c(=O)c4ccccc4n3C)c2=O)cc1	1.9	/	11%	/	/	/	-9
Nc1ccc(C(=O)c2cccs2)cc1	-0.5	0.0	11%	-1.3%	8	-0.5%	3
Cc1cc(C)cc(N(CCC#N)C(=O)COC(=O)Cn2[nH]c(=O)c3ccccc3c2=O)c1	/	1.1	/	1.1%	9	-4.2%	/
Cc1cc(C)cc(NC(=O)CSc2ncc(S(=O)(=O)c3ccccc3)c(=O)[nH]2)c1	9.4	/	5%	/	/	/	5
Cc1cc(-c2n[nH]c(=S)n2-c2ccccc2)nn1C	3.8	-0.6	79µM*	1.1%	1	?	-8
Cc1ccc(Nc2ccc([N+](=O)[O-])nc2[N+](=O)[O-])cc1	2.9	2.4	12%	2.2%[38.3 µM]	3	-1.2%	0
CC(=O)c1cc2c(cc1NC(=O)CN1CCCCC1C)OCO2 (configuration not stated)	3.6	-0.2	-18%	/	3	-29%	-10
Cc1c(NC(=O)c2ccc3ncccc3c2)c(=O)n(-c2ccccc2)n1C	2.4	0.7	11%	0.0%	-5	-2.7%	-5
O=C(OCCN1C(=O)c2cccc3c(N4CCOCC4)ccc(c23)C1=O)c1ccc(Cl)cc1Cl	?	26	9%	4.8%	-2	-1.3%	-3
CC1CCC(NC(=O)CCS(=O)(=O)c2ccc3c(c2)CCN3C(=O)C2CC2)CC1 (configuration not stated)	/	0.4	0%	0.2%	26	-0.3%	?
CCOC(=O)N1CCC(NC(=O)CS(=O)(=O)Cc2nc(-c3ccc(OC)cc3)oc2C)CC1	/	0.7	2%	-1.0%	-7	3.5%	?
Cc1ccc(N(CC(=O)NCC(O)c2ccccc2)S(=O)(=O)c2ccc(C)cc2)cc1 (configuration not stated)	-1.5	-1.1	16%	2.8%	-3	-4.7%	13
CCn1c2ccccc2c2nn(C)c(=N)nc21	2.4	25	11%	11%	-15	1.3%	7
CCCOC(=O)NC1CCS(=O)(=O)C1 (configuration not stated)	3.0	0.2	24%	1.8%	32	-1.6%	2
Cc1ccc(C(C)C)cc1S(=O)(=O)NCc1cccnc1	0.5	0.9	-2%	?	-16	-1.1%	-23
CCCCCCNC(=O)CNC(=S)N(Cc1cccs1)C1CCCCC1	4.0	0.6	11%	6.8%	-20	2.2%	-12
CC(C)c1nc2oc3c(N(C)CCO)ncnc3c2c2c1CCC2	1.1	-0.3	9%	-1.3%	10	0.2%	-31
COc1ccc(N2CC(NC(=O)C3CCCC3)CC2=O)cc1OC (configuration not stated)	/	0.2	/	-0.2%	0	1.4%	/
COc1ccc(S(=O)(=O)Nc2ccccc2C(=O)N2CCOCC2)cc1C	0.9	-0.3	2%	-1.8%	9	/	1
C[C@H](CO)N1C[C@H](C)[C@@H](CN(C)C(=O)NC2CCCCC2)Oc2c(NC(=O)Nc3ccc(C(F)(F)F)cc3)cccc2C1=O	/	3.9	/	9.1%	-6	-4.0%	/
CC1CCCCC1NC(=O)CN1C(=O)NC(Cc2ccccc2)(Cc2ccccc2)C1=O (configuration not stated)	4.0	0.7	-4%	4.8%	5	0.7%	0

Screening data deposited in PubChem by National Center for Advancing Translational Sciences (NCATS).
